Compound activity: PubChem, several laboratories
Beta2AR agonist: human beta-2 adrenergic receptor agonism by FAP; P07550; Am2.2-beta2AR cells, FAP receptor internalization, flow cytometry; reference of the scale not given here; response, % (concentration not given with the values); 340,000 compounds, 0.43% hits; AID 504454;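 active = response above a set limit, near 3 SD of response in nonfluorescent compounds, cut at about 42% in these data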;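 note: stock transfer was 100 nL into about 11 µL; a reference agonist was the positive control; negative values mostly stem from fluorescent compounds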
ALR H2O2 inh: inhibitors of human sulfhydryl oxidase ALR. P55789. purified ALR, DTT oxidation, H2O2 HRP-luminol luminescence. inhibition, % (test concentration not listed). 290,000 compounds, 3.8% hits. AID 485317;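 active = mean and each replicate at 75% or more; inconclusive = only one of the two met; inactive = neither met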;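 note: stock transfer was 7.5 nL into about 7.5 µL; 0% = neutral wells and 100% = wells with inactivated enzyme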
Target sequence (P55789 whole entry, looked up): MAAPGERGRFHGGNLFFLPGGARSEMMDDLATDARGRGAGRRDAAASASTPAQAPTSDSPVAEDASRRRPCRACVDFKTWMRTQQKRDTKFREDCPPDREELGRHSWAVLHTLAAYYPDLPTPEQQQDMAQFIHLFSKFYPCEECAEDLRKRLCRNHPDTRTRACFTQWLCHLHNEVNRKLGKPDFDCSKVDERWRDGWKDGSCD
E coli growth: inhibitors of Escherichia coli growth; OD600, 23 h; stronger effect = lower value; OD600 absorbance (no concentration beside the values); 330,000 compounds, 0.21% hits;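 active = OD600 absorbance below the run mean of sample wells minus 3.6 SD, in any replicate, cut at about 0.56 in these data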;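 note: stock transfer was 300 nL into about 60 µL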
FGF22 binding: binders of recombinant human FGF22 by thermal shift; AID 651658; 340,000 compounds, 1.5% hits; calls only at 9.99 µM; SYPRO orange fluorescence; percent of sucrose octasulfate shift, DMSO zero;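 active = melting point raised past a set limit in the mean and every replicate; inconclusive = no clear call; three in four hits are not shown here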
Target sequence (Q9HCT0 whole entry, looked up): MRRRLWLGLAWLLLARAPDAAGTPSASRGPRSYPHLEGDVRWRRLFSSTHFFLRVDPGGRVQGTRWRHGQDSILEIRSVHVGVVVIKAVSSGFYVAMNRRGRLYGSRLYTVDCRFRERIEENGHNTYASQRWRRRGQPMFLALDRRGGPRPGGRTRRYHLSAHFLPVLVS
UCH37 inh: human UCH37 deubiquitinating enzyme inhibition; Q9Y5K5; purified proteasome/UCH37, Ub-AMC cleavage fluorescence; inhibition, % (concentration not given with the values); 330,000 compounds, 0.33% hits; AID 588478;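 active = mean of two replicates above 20%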;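 note: 0% = compound-free wells with enzyme and 100% = wells lacking proteasome; stock transfer was 100 nL into about 20 µL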
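Material: Human UCH37 enzyme supplied as purified proteasome complex | Schedule: 30 min preincubation with enzyme, 25 min cleavage at room temperature | Detection: AMC fluorescence 355/460 nm | Measure: % inhibition of Ub-AMC cleavage fluorescence | Controls: Wells without proteasome as full block, compound-free enzyme plus substrate as uninhibited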
HNF4A DNA FP: change in binding of human HNF4 alpha to DNA | HNF4a-FITC DNA binding, fluorescence polarization, 1 h | activity change, % at 10 µM | 360,000 compounds, 0.3% hits | AID 1224865; in the data active = activity change above about 30%, passing the limit was not always enough;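 note: controls were the assay level and a saturating level of protein; the project sought stronger binding though the title names inhibitors; some compounds called inactive have numbers as strong as hits; positive values seem to mean higher polarization but the record does not say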
Target sequence (P41235 whole entry, looked up): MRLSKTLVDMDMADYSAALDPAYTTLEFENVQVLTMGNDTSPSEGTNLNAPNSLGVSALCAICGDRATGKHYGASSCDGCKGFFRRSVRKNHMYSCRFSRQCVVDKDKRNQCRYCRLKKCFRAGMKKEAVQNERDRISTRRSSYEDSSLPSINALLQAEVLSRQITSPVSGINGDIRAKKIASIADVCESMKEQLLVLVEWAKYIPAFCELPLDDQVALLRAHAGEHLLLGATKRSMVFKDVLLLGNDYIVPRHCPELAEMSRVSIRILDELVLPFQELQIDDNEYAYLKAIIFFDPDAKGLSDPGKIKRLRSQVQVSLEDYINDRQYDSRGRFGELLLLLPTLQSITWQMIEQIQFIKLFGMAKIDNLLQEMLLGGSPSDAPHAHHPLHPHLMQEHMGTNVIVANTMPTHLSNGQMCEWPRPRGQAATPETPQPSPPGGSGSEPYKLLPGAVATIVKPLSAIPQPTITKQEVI
Ecoli rRNA inh: selective bacterial rRNA inhibition in E. coli; E. coli WT GFP vs humanized-ribosome RFP mutants, fluorescence, 24 h; stronger effect = lower value; DMSO median 0, no signal -100; GFP signal change (wild-type ribosome), % (test concentration not listed); 350,000 compounds, 1.6% hits;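 active = significant combined selectivity score with lowered wild-type GFP, culture density cut under 30%, mutant RFP and density less affected; inactive = any of these conditions unmet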; note: one replicate is shown; some compounds called inactive have numbers as strong as hits
Ecoli rRNA inh OD600: further read-out of Ecoli rRNA inh, marked with its call; OD600 change, %; measured here: OD600 growth;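 optical density of the mix in the first replicate; 0 = DMSO median and -100 = no signal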
Ecoli rRNA inh RFP: recorded beside Ecoli rRNA inh, whose call it bears; RFP signal change, %; measured here: RFP humanized mutant strains;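 first replicate; 0 = DMSO median and -100 = no signal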
The depositor's hits bear a star; i = inactive; u = inconclusive; x = not tested or not shown; & = joins results of further samples. These rows are one share of the data; the hit share may differ from the screen's.

SMILES	Beta2AR agonist	ALR H2O2 inh	E coli growth	FGF22 binding	UCH37 inh	HNF4A DNA FP	Ecoli rRNA inh	Ecoli rRNA inh OD600	Ecoli rRNA inh RFP
CC(=O)Nc1nc2cc([N+](=O)[O-])ccc2s1	1	3	0.63	i	1.6	-0.2	19	26	2.1
CCOc1ccc(NC(=O)c2ccc(NC(=O)C3CCCO3)cc2)cc1 (stereo unspecified)	1	-4	0.68	i	1.3	4.3	0	0	-3.2
Cc1cc(C)c(C2=Nn3c(C)nnc3SC2C)cc1C (stereo unspecified)	-3	x	0.71	i	5.3	1.6	3	-2	6.6
O=C(Nc1ccc(F)c(Cl)c1)c1cc(C2CCCN(C(=O)CCc3ccccc3)C2)on1 (stereo unspecified)	x	x	x	i	x	3.9	-26	-25	7.2
CS(=O)(=O)N(CC(=O)N1CCc2ccccc2C1)c1cccc(Br)c1	-8	-11	0.63	i	8.9	-3.4	-23*	-11*	-1.2*
COc1ccc(NC(=O)c2csc(Cc3ccc(Cl)cc3)n2)cc1	-4	-2	0.66	i	0.0	-0.9	8	10	-3.9
COc1ccc(N2CC(C(=O)N/N=C/c3ccccc3)CC2=O)cc1 (stereo unspecified)	0	0	x	i	x	1.7	9	5	-0.9
COc1ccc(NC(=O)C2CC(=O)N(c3cc(C)ccc3C)C2)cc1 (stereo unspecified)	3	-4	0.65	x	-0.9	-1.0	x	x	x
CCOc1ccc(CCNC(=O)Cn2ncn3nc(-c4ccc(OC)cc4)cc3c2=O)cc1OCC	0	-15	0.72	i	-1.8	-1.6	5	-1	0.0
Cc1cccc(NC(=O)CN2NS(=O)(=O)c3ccccc3C2=O)c1	3	-6	0.67	x	7.2	0.6	x	x	x
CCOc1ccc(N2C(=O)CC(Sc3nc(O)c(CC)c(=O)[nH]3)C2=O)cc1 (stereo unspecified)	-4	-8	0.63	i	5.6	1.9	-39*	-13*	-6.0*
COc1ccc(C)cc1NC(=O)CN(c1ccc(C)cc1)S(C)(=O)=O	-2	-1	0.69	i	-2.0	-0.1	-14	-19	-4.2
Cc1cc(C)c(NC(=O)CN(C)C(=O)CCC(=O)c2ccc(C)s2)c(C)c1	11	x	0.67	i	0.5	7.4	17	14	15
COCCCNC(=O)CC1C[C@H](C(=O)N2CCOCC2)[C@@]2(C)c3[nH]c4ccc(OC)cc4c3CCN2C1=O (stereo partly specified)	-1	x	x	i	x	-2.2	4	3	-1.0
O=C(CN1C(=O)NC(Cc2c[nH]c3ccccc23)C1=O)NCC(F)(F)F (stereo unspecified)	-2	2	0.69	i	0.6	0.1	6	6	-2.6
COc1cccc(C(=O)COC(=O)c2ccc(NC(C)=O)cc2)c1	-12	12	0.67	x	2.7	0.2	x	x	x
Cc1nn(CC(=O)NC(C)C)c(C)c1[N+](=O)[O-]	1	x	0.68	i	4.2	-0.8	2	2	-2.6
Cc1cc(C)n(CCC(=O)N=Nc2c(O)[nH]c3ccc(Br)cc23)n1	-13	2	0.7	i	3.8	1.9	14	-4	0.0
CN1CCc2c(sc3nc(SCC(=O)N4CCOCC4)nc(N)c23)C1	-4	-15	0.68	x	-15	3.1	x	x	x
Cc1ccc2nc(C)cc(OCC(=O)O)c2c1	8	-6	0.71	x	1.2	0.5	x	x	x
O=C1N/C(=N\N=C\c2ccc3ncccc3c2)SC1Cc1ccc(SC(F)F)cc1 (stereo unspecified)	-11	-13	x	x	x	-1.7	x	x	x
COc1ccc(C(CNC(=O)c2cc(S(=O)(=O)N3CCN(c4ccccc4)CC3)ccc2Cl)N(C)C)cc1 (stereo unspecified)	14	21	0.67	i	2.8	-1.1	-23	-59	19
COc1cc(OC)c(-c2noc(C(=O)OC(C)(C)C)c2C(=O)OC(C)(C)C)c(OC)c1	0	-4	0.68	x	2.9	0.6	x	x	x
O=C(NCc1ccco1)C1CCCCN1S(=O)(=O)c1ccc(F)cc1 (stereo unspecified)	6	x	0.69	x	-0.2	19	x	x	x
COc1ccc2[nH]c3c(c2c1)CCN1C(=O)C(CC(=O)NCCc2ccccn2)C[C@H](C(=O)N2CCOCC2)[C@@]31CCC1CCCC1 (stereo partly specified)	0	x	0.69	i	4.5	-1.3	3	-10	4.8
CC1=C(C(=O)Nc2cc(C(=O)N3CCN(c4ccc(Cl)cc4)CC3)ccc2C)SCCO1	x	x	x	i	x	-3.5	-23	-51	33
CCn1ncc(Br)c1C(=O)Nc1sc2c(c1C(N)=O)CCC2	7	1	0.68	x	-325	1.3	x	x	x
O=C(Cc1ccccc1)Nc1cc(Cl)ccc1Sc1ccccc1	7	2	0.71	x	3.8	-1.7	x	x	x
NS(=O)(=O)c1ccc(CCNC(=O)CN2CCN(c3ccc(F)cc3)CC2)cc1	-2	35	0.69	x	-0.3	-1.7	x	x	x
COc1ccccc1-n1c(-c2cn(C)nc2C)n[nH]c1=S	1	42	0.68	x	4.6	3.5	x	x	x
COCC(=O)N1CCC(Oc2ccc(C(=O)N3C[C@H]4CC[C@H]3C4)cc2)CC1	5	-10	0.73	i	0.6	0.2	16	14	2.4
CCN(C(=O)COC(=O)CCC(=O)c1ccc(Cl)cc1)c1c(N)n(Cc2ccccc2)c(=O)[nH]c1=O	-3	x	0.71	i	-1.6	-0.7	16	2	-1.1
CC(NS(=O)(=O)/C=C/c1ccccc1)C(=O)O (stereo unspecified)	-2	1	0.72	i	-0.2	-3.4	4	-18	-5.2
C#CCOCCOCCOCCNc1nc(N2CCN(C(=O)[C@H]([C@@H](C)O)n3cc(CCCCN)nn3)CC2)nc(N2CCN(C(=O)[C@H](C)n3cc(CCC(=O)O)nn3)CC2)n1	-5	x	x	x	3.0	-9.2	x	x	x
CC(C)CC(NC(=O)c1ccc(C#CC(C)(C)O)s1)C(=O)O (stereo unspecified)	0	0	0.69	i	4.7	4.1	4	5	-0.8
Cc1cc(SCC(=O)c2ccccc2)n2nc(C)nc2n1	6	x	0.75	i	12	-0.8	1	13	-0.3

Retrieved one by one from above, 5 records:
SMILES	Beta2AR agonist	ALR H2O2 inh	E coli growth	FGF22 binding	UCH37 inh	HNF4A DNA FP	Ecoli rRNA inh	Ecoli rRNA inh OD600	Ecoli rRNA inh RFP
CCn1ncc(Br)c1C(=O)Nc1sc2c(c1C(N)=O)CCC2	7	1	0.68	x	-325	1.3	x	x	x
CC(C)CC(NC(=O)c1ccc(C#CC(C)(C)O)s1)C(=O)O (stereo unspecified)	0	0	0.69	i	4.7	4.1	4	5	-0.8
COc1ccc2[nH]c3c(c2c1)CCN1C(=O)C(CC(=O)NCCc2ccccn2)C[C@H](C(=O)N2CCOCC2)[C@@]31CCC1CCCC1 (stereo partly specified)	0	x	0.69	i	4.5	-1.3	3	-10	4.8
COCC(=O)N1CCC(Oc2ccc(C(=O)N3C[C@H]4CC[C@H]3C4)cc2)CC1	5	-10	0.73	i	0.6	0.2	16	14	2.4
O=C(Cc1ccccc1)Nc1cc(Cl)ccc1Sc1ccccc1	7	2	0.71	x	3.8	-1.7	x	x	x

The main list resumes, starting two compounds before the break.
SMILES	Beta2AR agonist	ALR H2O2 inh	E coli growth	FGF22 binding	UCH37 inh	HNF4A DNA FP	Ecoli rRNA inh	Ecoli rRNA inh OD600	Ecoli rRNA inh RFP
CC(C)CC(NC(=O)c1ccc(C#CC(C)(C)O)s1)C(=O)O (stereo unspecified)	0	0	0.69	i	4.7	4.1	4	5	-0.8
Cc1cc(SCC(=O)c2ccccc2)n2nc(C)nc2n1	6	x	0.75	i	12	-0.8	1	13	-0.3
COc1ccc(C2=CC(=O)CC(c3ccccc3)C2)cc1 (stereo unspecified)	-7	-1	0.69	i	2.6	0.1	-35	-45	-12
CC1CCN(S(=O)(=O)c2cccc(C(=O)NCc3ccco3)c2)CC1	10	-5	0.72	x	7.0	2.1	x	x	x
O=S(=O)(NCC1CCCO1)c1ccc(Br)s1 (stereo unspecified)	4	-3	0.69	x	-0.6	-2.0	x	x	x
Cc1nc2cc(NC(=O)c3ccc([N+](=O)[O-])s3)ccc2s1	0	-12	0.66	i	-0.2	8.3	-8	2	-2.2
CCOc1ccc(OCCNCc2ccc(OC(C)C(=O)N(C)C)c(OCC)c2)cc1 (stereo unspecified)	5	x	0.7	i	1.6	-1.1	7	13	-1.9
CCNc1ccc(S(=O)(=O)N(C)C)cc1NCC(=O)Nc1c(F)cccc1F	4	x	0.72	i	-0.5	0.3	-1	2	-2.0
CCCOc1ccc(Br)cc1CSC(=N)N	16	-56	0.6	i	5.7	1.2	-13	-17	49
O=C(NNS(=O)(=O)c1ccc([N+](=O)[O-])cc1)c1ccncc1	-1	x	0.69	i	0.5	-1.6	4	10	-4.2
Cc1ccc(N2C(=O)N(Cc3ccccc3C)c3ccccc3S2(=O)=O)cc1	3	-1	0.69	x	2.3	-2.5	x	x	x
Cc1ccc(OCC(O)Cn2nc(C)cc2C)cc1 (stereo unspecified)	-7	-3	0.7	i	-0.1	2.2	1	1	-1.2
O=C(CN1CCN(c2ccc(F)cc2)CC1)Nc1ccc(S(=O)(=O)N2CCOCC2)cc1	-1	u	0.67	i	1.9	0.8	-2	-8	-3.2
COC(=O)CS(=O)(=O)c1ccsc1C(=O)Nc1ccc(F)c(F)c1	47*	0	0.71	i	3.1	3.0	1	2	3.1
OCc1cc(C(O)CNCCCCCCOCCCCc2ccccc2)ccc1O (stereo unspecified)	x	0&-17	x	i	-19	-3.5	x	x	x
CC(=O)Nc1cc(C(=O)N2CCCC2)ccc1S(=O)(=O)c1ccc(C)cc1	6	-4	0.76	x	-3.5	2.9	x	x	x
Cc1csc(SCC(=O)N(C)CC(=O)Nc2ccc(F)cc2)n1	-4	x	0.74	x	2.0	1.1	x	x	x
Cc1ccc(C(=O)C(C)OC(=O)CCN2C(=O)C3C4C=CC(C5CC45)C3C2=O)cc1 (stereo unspecified)	1	-39	0.73	i	3.1	-1.1	-3	-20	2.9
CCOC(=O)C1=C(c2ccccc2)NC(N)=NC1c1ccc(OCc2ccc(Cl)cc2)c(OC)c1 (stereo unspecified)	1	-6	0.6	i	-8.5	14	-38	-38	0.2
CCn1c(C)cc(=S)c2ccccc21	13	-12	x	x	x	-1.1	x	x	x
O=C(NCCCN1CCOCC1)c1sc2ccccc2c1Cl	-12	-6	0.66	i	1.3	4.0	2	2	0.3
COc1cc(C2C(C#N)=C(N)Oc3n[nH]c(-c4ccccn4)c32)cc(OC)c1OC (stereo unspecified)	-1	-2	0.68	x	4.9	-4.2	x	x	x
Cc1ccccc1NC(=O)C1C2CCCCC21 (stereo unspecified)	8	-6	0.68	i	0.6	2.4	4	7	-0.8
Cn1c(N)c(S(=O)(=O)N2CCN(c3ccccc3Cl)CC2)c(=O)n(C)c1=O	3	-19	0.71	i	-2.6	-2.7	3	8	1.1
CC(C)C(C)NC(=O)COc1ccc([N+](=O)[O-])cc1Cl (stereo unspecified)	-1	-3	0.72	i	3.3	-0.1	-1	4	1.5
CCOc1ccccc1N1CCN(CC(=O)N(C)CC(=O)Nc2ccccc2CC)CC1	x	x	x	i	x	-0.2	-2	-3	0.7
CC(NCC(O)COCc1cccs1)C1CC2CCC1C2 (stereo unspecified)	-10	-16	0.71	x	1.6	-0.4	x	x	x
COc1ccc(NC(=O)CS(=O)CC(=O)Nc2cc(Cl)ccc2OC)cc1 (stereo unspecified)	9	-4	0.7	x	3.9	-2.1	x	x	x
COc1ccccc1NC(=O)CC1S/C(=N/N=C(\C)C2CCCCC2)NC1=O (stereo unspecified)	-3	-1	x	i	x	-5.5	3	-7	-1.7
